Compound activity deposited in PubChem by several laboratories.
PKD1 inh: blocks activity of human protein kinase D1. PKD1 kinase fluorescence polarization assay. inhibition, %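 (about 10 µM by stock and volumes)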. 200,000 tested, 0.056% active;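 active means inhibition of 50% or more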;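 further: controls were vehicle for no effect and a reference inhibitor for full effect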
Target sequence (Q15139 whole entry, looked up): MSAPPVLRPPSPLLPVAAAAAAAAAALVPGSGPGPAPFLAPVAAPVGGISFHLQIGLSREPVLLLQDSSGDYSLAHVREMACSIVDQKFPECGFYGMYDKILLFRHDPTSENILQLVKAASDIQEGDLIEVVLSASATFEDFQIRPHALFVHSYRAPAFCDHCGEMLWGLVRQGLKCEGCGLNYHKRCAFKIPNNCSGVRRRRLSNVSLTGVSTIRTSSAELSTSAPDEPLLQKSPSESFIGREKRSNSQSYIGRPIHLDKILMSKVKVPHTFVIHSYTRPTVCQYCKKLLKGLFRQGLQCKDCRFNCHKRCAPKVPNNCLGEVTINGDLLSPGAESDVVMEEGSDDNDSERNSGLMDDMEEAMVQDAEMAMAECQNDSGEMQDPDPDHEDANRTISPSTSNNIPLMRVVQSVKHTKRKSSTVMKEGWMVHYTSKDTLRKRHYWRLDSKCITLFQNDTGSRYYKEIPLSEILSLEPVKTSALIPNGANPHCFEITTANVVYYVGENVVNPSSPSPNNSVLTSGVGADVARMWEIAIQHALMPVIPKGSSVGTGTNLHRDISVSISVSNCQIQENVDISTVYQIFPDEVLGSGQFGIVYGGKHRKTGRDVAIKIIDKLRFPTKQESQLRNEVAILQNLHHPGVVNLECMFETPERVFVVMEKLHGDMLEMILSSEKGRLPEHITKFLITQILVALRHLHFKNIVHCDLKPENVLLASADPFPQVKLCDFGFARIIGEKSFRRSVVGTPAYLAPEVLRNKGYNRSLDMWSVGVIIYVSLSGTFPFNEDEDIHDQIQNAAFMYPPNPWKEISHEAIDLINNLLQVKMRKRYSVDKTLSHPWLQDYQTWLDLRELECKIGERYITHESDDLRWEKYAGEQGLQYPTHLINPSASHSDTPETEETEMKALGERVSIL
HSV replic up: increases HSV replication in cells. HSV replication augmentation in cells, fold increase. maximum fold increase. AID 1956. 220,000 tested, 0.005% active;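 active means peak rise of 1.5-fold or more in the series; inconclusive means self-fluorescent or not available for retest; tested in PC3 cells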;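 further: first round at 10 µM; read as green reporter fluorescence; hits show the peak of a series up to 25 µM; 1 = signal of infected wells without compound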
RGS16-Gao: regulators of human RGS16-Galphao interaction; binding response (% of control), % at 10 µM; AID 1441; bead-based flow cytometry RGS16-Galphao binding, fluorescence; actives lie on both sides; O15492+P09471; 220,000 tested, 0.38% active;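 active means below 25% or above 175%, edge rows of some plates excepted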;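 further: Galphao activated by GDP with aluminum fluoride before binding; 100% = wells without compound and 0% = beads without RGS; some results beyond the cut were filed as inactive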
Insulin prom inh: TRM-6 insulin promoter activity inhibition; TRM-6 cells (human fetal islet line), insulin promoter-eGFP reporter, imaging; reporter expression induced with tamoxifen; inhibition, % at 2 µM; 130,000 tested, 0.9% active;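 active means inhibition above the mean plus 3 SD, with well images judged a real hit on visual review, cut at about 60% in these data, passing the limit was not always enough; inconclusive means inhibition over the cutoff but images rejected on review; inactive means inhibition not above the cutoff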
GALR2 ag: agonists of human galanin receptor 2 (GALR2). O43603. GALR2-expressing cells, agonist activation read-out. activation, %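 (tested at 5 µM)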. 140,000 tested, 0.48% active. AID 803;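 active means above mean plus 3 SD of all compounds, about 5% in these data, not always enough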;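 further: 0% = vehicle buffer wells and 100% = reference agonist at full effect; tested in CHO reporter cells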
Insulin prom inh cell count: recorded beside Insulin prom inh, whose call it bears; normalized cell count, %; measured here: cell count, toxicity; reference of the scale not given here;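 cells exposed to compound for 48 h; stained nuclei by imaging scaled within each plate; lower means fewer cells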
HSV replic up primary fold: further read-out of HSV replic up, marked with its call; fold increase; compound at 10 µM; measured here: primary screen fold increase 10 uM; tested in PC3 cells;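 GFP signal in the first replicate; 1 = infected wells without compound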
Active calls of the source: *; i = inactive; ? = inconclusive; / = no result given. This is a subset; count on the stated rates, not on these rows.

SMILES	PKD1 inh	HSV replic up	HSV replic up primary fold	RGS16-Gao	Insulin prom inh	Insulin prom inh cell count	GALR2 ag
CN(C)[C@@H]1C(=O)C(C(N)=O)=C(O)[C@@]2(O)C(=O)C3=C(O)c4c(O)ccc(Cl)c4[C@@](C)(O)C3C[C@@H]12 (stereo not given in full)	-7	/	/	100	43	87	-1.6
CN(C)C(=O)OCc1n(C)cc[n+]1C	-7	i	1.1	112	-44	98	0.2
c1ccc2c(CCNC3=NCCC3)c[nH]c2c1	12	i	0.88	101	/	/	-1.3
O=C(c1ccc(C(F)(F)F)cc1)C1CCCN(Cc2ccc(CO)o2)C1 (stereo not given)	-3	i	0.99	99	/	/	/
O=C(Cn1cc(C(=O)c2ccccc2F)c2ccccc21)NCc1ccco1	-10	i	0.59	98	/	/	-2.1
CC(C)N1CC=C(c2c[nH]c3ccccc23)CC1	2	i	1	97	/	/	-0.8
CCOC(=O)C1=C(N)OC(C)=C(C(=O)OCCOC)C12C(=O)Nc1ccccc12 (stereo not given)	5	i	0.85	104	-88	97	-2.8
CCOC(=O)c1cncn1C(C)c1ccccc1 (stereo not given)	1	i	0.93	83	11	90	-1.6
CN(C)/C=C(\C=[N+](C)C)c1[nH]ncc1[N+](=O)[O-]	3	i	1.1	100	/	/	/
O=[N+]([O-])c1cc(S(=O)(=O)c2ccc(O)c([N+](=O)[O-])c2)ccc1O	-6	i	0.9	104	-8	127	0.5
O=C(C1CCCN(S(=O)(=O)c2cccc3nsnc23)C1)N1CCC2(CC1)OCCO2 (stereo not given)	4	i	0.81	102	31	133	-2.0
C=CCn1c(O)c(C(C)=Nc2ccc(N(CC)CC)cc2)c(=O)[nH]c1=O	-4	i	0.53	99	3	230	1.5
O=c1c2ccccc2[se]n1-c1ccccc1	-7	i	0.96	81	0	76	0.2
CC12CN3CCN(CC(C3)/C1=N/NC(N)=O)C2	/	i	1.3	93	/	/	/
CC1CCC(NCC(O)c2ccccc2)CC1 (stereo not given)	-6	i	1	100	4	115	-1.5
CCOP(=O)(OCC)Oc1cc(C)c(N(C)C)c(C)c1	/	i	0.99	121	/	/	/
Cc1nc2ccccc2n1C1CCN(Cc2nnnn2CCc2ccccc2)CC1	3	i	0.85	107	/	/	-0.5
CCN1CCN(c2nc3ccccc3s2)CC1	-11	i	1	102	12	142	-1.2
O=c1c2ccccc2nc(CN2CCOCC2)n1-c1ccccc1F	-5	i	0.76	98	20	130	-0.9
O=C(Nc1ccccc1)OC1CN=C(N[N+](=O)[O-])NC1 (stereo not given)	-5	i	0.83	59	-29	66	/
CC(Cc1cccs1)NCc1ccccc1 (stereo not given)	-6	i	1	105	/	/	/
CC1=CC(=C2C(=O)NC(=S)NC2=O)C=C(C(F)(F)F)N1Cc1ccccc1	-5	i	0.78	103	-407	9	/
Cc1cccc(N2C(=O)NC(=O)/C(=C\c3cc(C)n(-c4sc5c(c4C#N)CCCC5)c3C)C2=O)c1C	-5	?	/	69	/	/	-1.7
CCOC(=O)C1=C(N)OC2=C(C(=O)CCC2)[C@]12C(=O)N(CC(N)=O)c1ccccc12	/	i	1	100	/	/	/
C=CCn1c(O)c(C(CC)=NCCc2ccccc2)c(=O)[nH]c1=O	1	i	0.78	98	i	66	12*
(more compounds)
SMILES	PKD1 inh	HSV replic up	HSV replic up primary fold	RGS16-Gao	Insulin prom inh	Insulin prom inh cell count	GALR2 ag
O=C(C1c2ccccc2C(=O)N2CCc3ccccc3C12)N1CCC2(CC1)OCCO2 (stereo not given)	5	i	0.74	95	/	/	-1.6
NP(=O)(Oc1ccc(Cl)cc1)Oc1ccc(Cl)cc1	-1	i	1	99	/	/	/
CSc1ccc(C(=O)C(C)(C)N2CCOCC2)cc1	-4	i	1	106	-257	59	-1.6
C=CCn1c(O)c(C(C)=O)c(=O)[nH]c1=O (tested in a mixture with another compound)	/	i	1.2	97	/	/	/
CC1=NN(Cc2c[nH]c3ccccc23)C(C)(C)C1	9	i	0.97	102	-67	145	/
CN(C)C(=O)Oc1ccc([N+](=O)[O-])cc1	1	i	0.99	92	0	138	/
O=C(COc1ccc2ccccc2c1)N1CCN(Cc2ccncc2)CC1	-3	i	0.92	101	-2	106	-4.3
COc1cccc(-n2c(/C=C/c3ccc(O)c(O)c3)nc3ccccc3c2=O)c1	-3	?	/	97	/	/	/
Cc1nc2c(c(=O)[nH]1)C(c1ccc([N+](=O)[O-])cc1)c1c(c3ccccc3oc1=O)O2 (stereo not given)	/	i	0.83	104	/	/	/
CC(C)NS(=O)(=O)c1ccc(OCC(=O)N2CCN(Cc3ccccc3)CC2)c(Cl)c1	-7	i	0.93	108	-356	89	-0.5
CCOP(=O)(OCC)c1cc(CC)ccc1O	/	i	1.1	99	/	/	/
COP(=O)(OC)C(NS(=O)(=O)c1ccccc1)C(Cl)(Cl)Cl (stereo not given)	-2	i	0.96	106	/	/	/
CCCn1nc2ccccc2c1P(=O)(N1CCOCC1)N1CCOCC1	-6	i	0.88	106	/	/	0.3
CN1CCN(c2ccc(N)cc2)CC1	8	i	0.84	81	28	98	-2.6
COc1ccc(C)cc1NC(=O)c1c(C)nn(Cc2ccccc2)c1Cl	-1	i	0.94	102	/	/	-0.7
Cc1cc(C=C2C(=O)N(C)C(=S)N(C)C2=O)c(C)n1C1CCCC1	-7	i	1.1	96	-43	95	-0.6
Cc1nn(Cc2ccccc2Cl)c(Cl)c1C(=O)OC(C(=O)NC(N)=O)C(C)C (stereo not given)	-4	i	0.91	127	-7	71	-0.2
Cc1cc(C(=O)NP(=O)(N2CCOCC2)N2CCOCC2)c(C)n1C1CC1	-4	i	0.96	101	/	/	/
Clc1ccc(N2CCN(Cc3ccccc3Cl)CC2)cc1	-5	i	0.96	98	26	139	0.3
CCc1ccccc1N1C(=O)NC(=O)/C(=C\c2cc(C)n(C)c2C)C1=O	0	i	1.1	100	-19	140	-1.1
O=C1CC(C(=O)N2CCC3(CC2)OCCO3)CN1CCc1ccccc1 (stereo not given)	-21	i	1	101	80*	124*	-2.0
CCC(=O)CC(c1ccccc1)c1c(O)c2ccccc2sc1=O (stereo not given)	-7	i	1	95	22	106	-1.8
O=C(CN1CCCCC1)c1cccc(Br)c1	7	i	1.1	89	/	/	0.8
CCNC(=O)NC(=O)C(C)OC(=O)c1c(C)nn(Cc2ccccc2Cl)c1Cl (stereo not given)	-2	i	0.88	107	-56	127	1.1
O=c1c2ccccc2nc(-c2ccccc2)n1-c1cccnc1	0	i	1.2	109	26	89	-0.7

Next section; the last 3 above are carried over.
SMILES	PKD1 inh	HSV replic up	HSV replic up primary fold	RGS16-Gao	Insulin prom inh	Insulin prom inh cell count	GALR2 ag
O=C(CN1CCCCC1)c1cccc(Br)c1	7	i	1.1	89	/	/	0.8
CCNC(=O)NC(=O)C(C)OC(=O)c1c(C)nn(Cc2ccccc2Cl)c1Cl (stereo not given)	-2	i	0.88	107	-56	127	1.1
O=c1c2ccccc2nc(-c2ccccc2)n1-c1cccnc1	0	i	1.2	109	26	89	-0.7
CCCCCCn1c(O)c(C=NC2CCCCC2N)c(=O)[nH]c1=O (stereo not given)	-6	i	1	105	18	92	-1.2
CCCCn1c(O)c(C=NCCCN(CC)CC)c(=O)[nH]c1=O	-3	i	0.83	109	/	/	-0.1
Cc1cccc(N2C(=O)NC(=O)C3(Cc4cc(C)ccc4N(C)C3)C2=O)c1 (stereo not given)	-4	i	1.3	99	54	111	-0.9
COc1cccc(N2C(=O)NC(=O)/C(=C\c3ccc([N+](=O)[O-])s3)C2=O)c1	-3	i	1.2	76	/	/	/
CN(C)C(=O)Oc1ccc(C(=O)c2ccccc2)cc1	-4	i	1	103	50	93	-2.8
N=Cc1c(O)n(-c2cccc(Cl)c2)c(=O)[nH]c1=O	-12	i	0.62	98	-33	28	-2.6
Cc1cc(/C=C2\C(=O)NC(=O)N(c3ccc(Cl)cc3)C2=O)c(C)n1-c1sc2c(c1C#N)CCCC2	-10	?	/	118	/	/	-1.1
CCOC(=O)C1=CC(=C2C(=O)N(CC)C(=S)N(CC)C2=O)c2ccccc2O1	-2	i	1	102	/	/	/
CC1(C)NCCN2C(=O)CSC21 (stereo not given)	2	i	1	96	19	81	-1.6
CN1C(=O)C(=Cc2ccc(OCCN(C)c3ccccn3)cc2)C(=O)N(C)C1=O	-5	i	1	99	26	134	/
CNS(=O)(=O)c1ccc(N=Cc2c(O)n(-c3ccccc3)c(=O)[nH]c2=O)cc1	-5	i	1.2	126	25	65	/
O=C(O)CCn1cc(C=C2C(=O)NC(=S)NC2=O)c(-c2cc3ccccc3oc2=O)n1	-2	i	1.1	100	/	/	/
O=C(c1cc([N+](=O)[O-])ccc1N1CCNCC1)N1CCOCC1	-20	i	1.2	105	/	/	-0.8
Oc1cc2c(cc1CN1CCN(c3ccccc3)CC1)CCC2	-4	i	0.91	102	-33	104	-0.8
CN1CCN(c2ccc([N+](=O)[O-])c(N3CCCCC3)c2)CC1	5	i	0.99	101	/	/	/
COc1ccc(NC(=O)CN2C3CCC2CC(O)(c2cccnc2)C3)cc1OC (stereo not given)	0	i	1	97	29	136	-1.9
Cc1cccc(N2C(=O)NC(=O)/C(=C\c3cnc(-c4ccccc4)nc3)C2=O)c1	-1	i	1.1	101	-70	98	-0.4
CCn1c(=O)n(CC(=O)N2CCC3(CC2)OCCO3)c(=O)c2ccccc21	-5	i	0.98	203	/	/	-2.3
CCOP(=S)(NN(Cc1ccccc1)C(=O)c1ccccc1)OCC	0	i	1.1	59	-17	89	-0.2
O=c1[nH]c(=O)n(Cc2ccco2)c(O)c1C=NCc1cccs1	-1	i	0.91	95	-48	52	-1.4
CCCCn1c(C)c(C(=O)OCC)c2c(CN3CCOCC3)c(O)ccc21	-4	/	/	99	21	73	-0.5
CCC(C)n1c(O)c(C=NC(C)c2ccccc2)c(=O)[nH]c1=S (stereo not given)	/	i	0.92	106	/	/	/
CCC1(OC(=O)CN)C(=O)OCc2c1cc1n(c2=O)Cc2cc3ccccc3nc2-1 (stereo not given)	/	i	0.58	101	/	/	/
CC(C)Cc1[nH]c(=O)c(C#N)c2c1CCC2	5	i	1	99	29	93	-2.6
COC(=O)C1=Nc2ccccc2/C1=C\c1c(O)n(-c2ccc(Br)cc2)c(=O)[nH]c1=O	-6	i	0.8	102	-35	62	-0.3
(cont.)
SMILES	PKD1 inh	HSV replic up	HSV replic up primary fold	RGS16-Gao	Insulin prom inh	Insulin prom inh cell count	GALR2 ag
CCN1c2nc3ccccn3c(=O)c2CC2(C(=O)N(C)C(=O)N(C)C2=O)C1C (stereo not given)	-8	i	0.85	123	31	69	-2.2
Cc1ccc(C)c(-n2c(C)nc3ccccc3c2=O)c1	/	i	0.92	103	/	/	/
O=S1(=O)CCN(CCc2c[nH]c3ccccc23)CC1	-9	i	1	100	54	93	/
Cc1ccc(OCC(=O)N2CCN(Cc3ccc4c(c3)OCO4)CC2)cc1C	1	i	1	117	44	29	/
O=c1c(C=Nc2cccnc2Cl)c(O)n(CCCCl)c(=O)n1C1CCCCC1	-10	/	/	102	-25	106	0.6
Cc1nonc1-c1nc(-c2nonc2N)n[nH]1	1	i	1	103	10	122	-2.8
NC(=O)C1(N2CCCCC2)CCN(Cc2ccccc2)CC1	-19	i	0.95	103	-48	162	-0.9
C[C@]12CCC(=O)C=C1CC[C@@H]1[C@@H]2CC[C@]2(C)C(=O)CC[C@@H]12	-1	i	0.92	114	24	86	-2.0
Cc1cc(OCc2nn[nH]n2)c2c3c(c(=O)oc2c1)CCCC3	3	i	0.85	90	/	/	-0.7
CCCCCCN=C(C)c1c(O)n(Cc2ccccc2)c(=O)[nH]c1=O	-12	i	0.96	102	-47	68	-0.4
CCCCOC(=O)C1=C(N)OC2=C(C(=O)CCC2)[C@]12C(=O)N(C)c1ccccc12	-12	i	0.91	97	-4	92	-0.9
COc1ccc(NC2=NC(C)(C)CS2)cc1	-8	i	1.2	99	35	109	/
CC(=O)N1N=C2C3CCN(CC3)C2C1c1cccc2ccccc12 (stereo not given)	-1	i	0.84	122	-2	98	-0.1

Part of the list above in order of SMILES length, high to low.
SMILES	PKD1 inh	HSV replic up	HSV replic up primary fold	RGS16-Gao	Insulin prom inh	Insulin prom inh cell count	GALR2 ag
CCCCOC(=O)C1=C(N)OC2=C(C(=O)CCC2)[C@]12C(=O)N(C)c1ccccc12	-12	i	0.91	97	-4	92	-0.9
CCN1c2nc3ccccn3c(=O)c2CC2(C(=O)N(C)C(=O)N(C)C2=O)C1C (stereo not given)	-8	i	0.85	123	31	69	-2.2
Cc1ccc(OCC(=O)N2CCN(Cc3ccc4c(c3)OCO4)CC2)cc1C	1	i	1	117	44	29	/
CC(=O)N1N=C2C3CCN(CC3)C2C1c1cccc2ccccc12 (stereo not given)	-1	i	0.84	122	-2	98	-0.1
O=S1(=O)CCN(CCc2c[nH]c3ccccc23)CC1	-9	i	1	100	54	93	/
